Sa RN4220 lethal: growth inhibition of S. aureus RN4220, primary screen, OD600; 16 h; AID 1259311, 2017; 0.33% of 330,000 active; inhibition, % (test concentration not listed);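 active = z-score of -3 or lower and OD600 up to 0.18 on both plates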;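 note: plate controls were untreated cells for no effect and reference antibiotic for full effect; stock transfer was 100 nL into about 80 µL; one replicate is shown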
Mtb hypoxia rep: PubChem AID 1159583. M. tuberculosis hypoxia-regulated fluorescent reporter, fluorescence. fluorescence inhibition, % (test concentration not listed). 0.1% of 300,000 active;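 active = 35 to 45% if threefold the growth effect, above 45% if 1.5-fold the growth effect; inactive = the rest, general growth blockers included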;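 note: wells of about 50 µL received 100 nL stock; 0% = vehicle wells and 100% = reference inhibitor wells; whole bacteria with a GFP reporter of the hypoxia response; strong numbers were not always called active; many hits fall short of the cut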
PrP UTR inh: inhibition of PrP 5' UTR reporter expression; cell-based PrP 5' UTR mRNA reporter, plate reader; inhibition, % (concentration not given with the values); 0.35% of 340,000 active; AID 488862, 2010;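 active = every replicate at 50% or more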;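 note: 0 = median of the neutral control wells; tested in H4 reporter cells; numbers are from one replicate; inactives centre near -14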
ugtP null kill: growth inhibition of ugtP-null S. aureus, primary screen, RN4220 ugtP deletion, OD600; 16 h; some inactives read as strong as hits; growth inhibition, % (no concentration beside the values); 0.54% of 330,000 active;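 active = z-score under -3 and OD600 up to 0.15 on both plates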;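 note: plate controls were untreated wells for no effect and antibiotic for full effect; wells of about 80 µL received 100 nL stock; the first replicate is given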
BJeLR lethal: MLPCN primary cell-based screen for lethality selective to Ras in HRASV12 cells; 0.17% of 300,000 active; inhibition, % (concentration not given with the values); BJeLR (HRASV12) viability, CellTiter-Glo ATP luminescence, 48 h; reference of the scale not given here;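 active = replicate mean above 50%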;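 note: 50 nL library stock added to about 25 µL; numbers are from one replicate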
Bead autofluor: counter-screen for toxin protease inhibitors: compound fluorescence | compound autofluorescence counterscreen, microsphere flow cytometry; hits give high values | AID 624483 | 3.1% of 360,000 active | fluorescence intensity (no concentration beside the values);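 active = at least 3 SD above the mean of all compounds, about 16000 in these data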;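 note: 100 nL of 1 mM stock went into each well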
Mtb hypoxia rep growth: further read-out of Mtb hypoxia rep, marked with its call; growth inhibition, %; measured here: M. tuberculosis growth (absorbance);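 0% = vehicle and 100% = reference antibiotic; read after six days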
An asterisk follows results filed as active; . = no result given.

Preview, 2 compounds:
SMILES	Sa RN4220 lethal	Mtb hypoxia rep	Mtb hypoxia rep growth	PrP UTR inh	ugtP null kill	BJeLR lethal	Bead autofluor
Cc1nn(-c2ccccc2)nc1-c1nnc(-c2ccc(C(F)(F)F)cc2)o1	3.4	11.8	10.9	-26.6	-2.7	-0.8	3748
C[N+](C)(C)CCCCCC[N+](C)(C)C	6.9	9.6	-1.1	-16.3	1.1	-8.0	5225

The whole of this part (from the top)
SMILES	Sa RN4220 lethal	Mtb hypoxia rep	Mtb hypoxia rep growth	PrP UTR inh	ugtP null kill	BJeLR lethal	Bead autofluor
Cc1nn(-c2ccccc2)nc1-c1nnc(-c2ccc(C(F)(F)F)cc2)o1	3.4	11.8	10.9	-26.6	-2.7	-0.8	3748
C[N+](C)(C)CCCCCC[N+](C)(C)C	6.9	9.6	-1.1	-16.3	1.1	-8.0	5225
O=C(Nc1ccccc1)c1ccc2ccccc2n1	11.3	-1.0	-2.4	-89.9	-1.4	3.8	4424
O=C(CCN1CCN(c2ccccc2)CC1)NNC(=O)Cc1ccccc1Cl	5.6	4.9	1.0	-23.8	3.6	.	6325
O=S(=O)(c1ccc(NC(=S)NN=Cc2ccc(O)c(O)c2)cc1)N1CCOCC1	3.5	4.4	-4.5	.	-5.9	.	.
COc1ccc(OC)c(NC(=O)CSc2nnc(-c3ccncc3)s2)c1	1.7	8.2	8.3	-14.3	-4.9	-0.8	5055
COc1cc2c(C(=O)O)c(C)n(CC(C)C)c2c2ccccc12	20.7	13.2	6.1	-16.7	6.5	-10.0	2477
CCc1ccc2oc(-c3ccc(OC)cc3)cc(=Nc3cccc(C(=O)O)c3)c2c1	8.5	2.2	5.9	-76.4	13.0	-0.8	2456
Cc1cnc(C(=O)NC(Cc2ccccc2)c2ccccc2)cn1 (stereo not given)	-3.2	8.5	4.6	-19.6	6.3	-6.0	5062
O=C1/C(=C/c2cccs2)Cc2ccccc21	7.5	-1.4	-2.6	-12.8	1.9	-3.5	2505
O=C(Nc1cccc(Cl)c1)N1CCCCCC1	1.3	18.5	6.6	-22.9	1.2	-4.2	3166
COc1ccccc1C(=O)N1CCN(S(=O)(=O)c2ccccc2)CC1	2.2	12.7	5.0	-15.8	4.5	-3.6	2553
O=S(=O)(Nc1cccc(Oc2ccc(Cl)cc2)n1)c1ccc(F)cc1	4.0	3.6	8.5	-12.2	-5.2	-2.3	4102
CCOc1cc(N2CCOCC2)c(OCC)cc1NC(=O)CN1CCc2ccccc2C1	-2.2	-2.1	8.5	-10.6	1.4	-8.0	3192
CC(Oc1ccc(F)cc1)C(=O)Nc1sc2c(c1C(=O)NCc1cccnc1)CCCC2 (stereo not given)	-6.2	-10.5	6.0	-19.4	-12.6	-6.3	9142
COc1ccc(OCC(=O)N2CCN(CC3CC4C=CC3C4)CC2)cc1 (stereo not given)	-11.6	10.9	4.3	-12.3	0.7	0.8	3457
CCCn1c(N2CCN(C(=O)N3CCCCC3)CC2)nc2ccccc21	0.0	7.8	11.0	-5.1	6.7	-2.8	3225
COC(=O)c1c(C)[nH]c(C(=O)/C=C/c2ccccc2Cl)c1C	1.8	-2.4	-2.2	-213.4	-2.9	4.0	4872
N#CC1=C(N)Oc2cc(N)ccc2C1c1ccc(Cl)cc1 (stereo not given)	9.0	-0.1	8.5	-10.0	-9.7	1.9	3887
Cc1ccc(S(=O)(=O)N(C)CC(=O)Nc2nnc(CC(C)C)s2)cc1	-1.9	1.9	5.4	-17.9	8.0	2.7	6127
O=C(c1ccc(F)cc1)C(CN1CCOCC1)c1ccccc1 (stereo not given)	28.7	8.1	4.7	-12.5	74.5	7.8	6584
CCCCCCN=CC1=C(O)C(C(=O)OC)C(C)(C)CC1=O (stereo not given)	2.5	.	.	-16.4	-0.6	5.0	2730
FC(F)(F)C(Oc1nc(Nc2ccc(Cl)cc2)nc(N2CCOCC2)n1)C(F)(F)F	-0.4	15.4	-21.5	9.4	-1.3	-4.9	2370
Cc1cc(C(=O)OC2CCOC2=O)c2ccccc2n1 (stereo not given)	2.3	5.9	-5.3	-8.0	3.4	8.3	7172
Cn1c(N)c(C(=O)/C=C/c2ccccc2)c(=O)[nH]c1=O	5.1	2.4	5.1	-34.1	0.2	-7.2	3944
COc1ccc(CCCc2nnc(SCC(=O)Nc3cccc(C)c3)o2)cc1	-0.9	3.6	7.0	-26.9	12.0	-1.9	8263
CCC(C)NC(=O)CCn1c(-c2ccccc2)cc(C(C)=O)c1C (stereo not given)	4.6	10.0	3.2	-18.7	11.2	-16.7	2032
CCOc1cc2c(cc1OCC)-n1cccc1C(c1ccc(OC)c(O)c1)NC2 (stereo not given)	1.5	4.3	-9.7	-8.2	4.6	-1.1	3332
Cn1cc(P(=O)(N2CCOCC2)N2CCOCC2)cc1P(=S)(N1CCOCC1)N1CCOCC1	0.7	0.2	13.3	-13.7	12.9	-0.2	4326
CCCc1cc(=O)[nH]c(SCCOC(=O)c2ccccc2)n1	9.3	8.9	5.3	-20.1	6.4	-0.1	4268
Nc1c(C(=O)Nc2cccc(F)c2)nnn1-c1ccc2c(c1)OCCO2	-1.0	-0.8	8.6	-117.6	8.9	12.5	5815
Cc1ccc(-c2cc(C(=O)NN=CC=Cc3ccccc3)n[nH]2)o1	5.7	-1.6	-2.8	.	-4.5	.	.
CCN(N=C/C=C/c1ccccc1)c1cc(=O)n(C)c(=O)[nH]1	0.7	0.2	2.2	.	-0.7	.	.
CC1CN(CC(O)COc2ccc(C#N)cc2)CCN1CC(O)COc1ccc(C#N)cc1 (stereo not given)	2.4	-9.6	-1.3	-12.4	3.4	-5.6	3666
O=C(NCCN1CCOCC1)c1cc(-c2ccc(Cl)cc2Cl)on1	4.5	-13.4	0.6	-8.2	0.9	-10.6	4255
COc1ccc(-c2ccc(SCC(=O)NC3CCCCC3)nn2)cc1	.	.	.	-50.6	.	-9.3	5021
COc1ccc(C2C3C(=O)N(C(C)(C)C)C(=O)C3[C@]3(Cc4ccccc4)C(=O)N(c4ccccc4)C(=O)N23)cc1 (stereo not given in full)	6.7	-0.2	5.4	.	4.2	.	.
COc1cc(OC)cc(-c2nn[nH]n2)c1	-2.4	-9.7	-9.0	-32.1	6.6	-6.4	2531
CC1CC(=O)Nc2ccccc2N1C(=O)CN1C(=O)C(=O)N(C)C1=O (stereo not given)	2.7	9.1	10.3	-11.3	3.2	.	3472
O=C(CCS(=O)(=O)c1ccc(F)cc1)Nc1nnc(-c2ccco2)o1	3.3	10.2	3.4	-23.9	14.5	2.0	6252

Quoted at random: four compounds from above
SMILES	Sa RN4220 lethal	Mtb hypoxia rep	Mtb hypoxia rep growth	PrP UTR inh	ugtP null kill	BJeLR lethal	Bead autofluor
Cc1ccc(-c2cc(C(=O)NN=CC=Cc3ccccc3)n[nH]2)o1	5.7	-1.6	-2.8	.	-4.5	.	.
Nc1c(C(=O)Nc2cccc(F)c2)nnn1-c1ccc2c(c1)OCCO2	-1.0	-0.8	8.6	-117.6	8.9	12.5	5815
COc1cc(OC)cc(-c2nn[nH]n2)c1	-2.4	-9.7	-9.0	-32.1	6.6	-6.4	2531
Cn1c(N)c(C(=O)/C=C/c2ccccc2)c(=O)[nH]c1=O	5.1	2.4	5.1	-34.1	0.2	-7.2	3944

Next section:
SMILES	Sa RN4220 lethal	Mtb hypoxia rep	Mtb hypoxia rep growth	PrP UTR inh	ugtP null kill	BJeLR lethal	Bead autofluor
CSc1ccc(S(=O)(=O)N2CCC(C(=O)N3CCc4ccccc4C3)CC2)cc1	1.1	4.0	16.1	-7.2	-1.3	-0.6	4918
Cc1onc(-c2ccccc2Cl)c1C(=O)N1CCN(C(=O)c2ccco2)CC1	-0.8	-4.9	-5.9	0.3	1.2	4.4	3034
NC(=O)Nc1ccc(C(=O)OCC(=O)Nc2cccc(S(=O)(=O)NC3=NCCC3)c2)cc1	1.1	4.6	9.1	-4.8	-0.8	.	4055
CCOC(=O)N/N=C(/C)c1ccc(N2C(=O)C3CCCCC3C2=O)cc1 (stereo not given)	.	.	.	-4.4	.	0.3	4187
COc1ccc(CN(C(=O)CNC(=O)c2ccco2)C(C(=O)NCC2CCCO2)c2ccccc2)cc1 (stereo not given)	0.0	2.3	1.0	-2.0	6.8	-4.9	3056
O=C(CSc1nc2cc([N+](=O)[O-])ccc2n1-c1ccccc1)NCc1ccc2c(c1)OCO2	.	.	.	-32.0	.	8.6	2547
O=C(NCc1ccc(Cl)cc1)Nc1ccc(F)cc1	-1.2	15.3	9.2	-40.0	7.9	2.2	5665
O=C(NC1CCCCC1)c1cc(-c2ccccn2)nc2ccccc12	5.0	10.9	-2.5	-14.8	14.0	6.1	3567
CCOCCCNC(=O)C(NC(=O)c1ccccc1O)c1ccccc1 (stereo not given)	5.0	0.7	-0.2	-18.4	-0.4	-3.6	4624
O=C(CCN1CCN(c2ccccc2)CC1)NN=Cc1ccc(O)c(O)c1O	2.6	-2.8	6.0	.	-0.5	.	.
O=C(CSc1nnc(COc2ccccc2)o1)N1CCCC1	2.4	2.5	-1.8	-7.0	1.9	9.3	6463
Cc1ccc(C)c(Nc2nc3nonc3nc2N2CCOCC2)c1	2.9	1.7	-0.3	-18.7	-0.1	1.7	5885
O=C(CN1CCN(C/C=C/c2ccccc2)CC1)NC(=O)NC1CCCCC1	8.4	-6.5	12.5	-16.1	11.4	7.6	3801
Cc1cccc(OCC(=O)N2CCN(c3nnc(-c4ccccc4)c4ccccc34)CC2)c1	9.6	0.0	-5.5	-22.5	15.1	3.0	3923
COc1ccc(-c2noc(CSc3nc4ccccc4c(=O)n3-c3ccc(C)cc3)n2)cc1	0.9	-3.6	2.4	-25.6	13.8	1.7	6085
COc1ccccc1OCCCC(=O)NC(C)c1ccccc1 (stereo not given)	2.5	6.3	23.1	-25.5	1.7	-1.1	4307
COc1ccccc1N1CCN(C(=O)COc2cccc(C)c2C)CC1	11.2	15.8	8.0	-3.6	0.9	0.4	3235
CC(=O)Nc1ccc2sc(C)nc2c1	3.1	10.8	0.2	0.2	0.9	5.7	3319
COC(=O)C1=C(C(=O)OC)[C@@H]2N(C)c3ccccc3[C@@]23C[C@@H](CO)N(C(=O)c2cccs2)C3=N1	.	.	.	-11.9	.	17.4	2978
COC(=O)C1=C(C)NC(=O)NC1C1CC=CCC1 (stereo not given)	2.5	10.6	15.9	-23.7	2.0	0.9	5992
CNC(=O)COC(=O)c1cc(-c2ccco2)nc2ccccc12	0.6	-10.7	-10.0	-10.1	-2.1	10.4	4388
COc1ccc(CC(=O)Nn2c(-c3ccccc3)nc3ccccc3c2=O)cc1	3.9	4.4	-2.1	-19.1	10.3	8.6	1996
CCOc1ccc(-n2cc(C(=O)NCc3ccco3)c3cc(OC)c(OC)cc3c2=O)cc1	6.9	3.8	13.1	-4.0	5.5	-4.4	3629
O=S1(=O)CCOC[C@H](CC2CCCCC2)N1Cc1ccccc1Br	.	.	.	-12.5	.	7.7	4053
Cc1ccc(C2=CN(Cc3ccccc3)CCC2=O)cc1	7.7	12.4	11.6	-65.1	-6.6	.	3815
CN(Cc1ccon1)Cc1cn(C)nc1-c1cccc(Cl)c1	8.5	13.8	6.5	-13.0	9.2	5.9	2583
Fc1ccc(CNc2ncnc3c2cnn3-c2ccccc2)cc1	-4.3	.	.	-16.0	-2.3	-1.8	4065
CCOc1cc(C(=O)NC2CC(C)(C)NC(C)(C)C2)cc(OCC)c1OCC	6.1	10.7	6.1	-8.8	1.9	4.6	9774
CCCCCC(=O)Nc1ccc2oc(-c3cccnc3)nc2c1	1.6	14.0	1.4	-35.7	-0.9	0.3	8942
CCc1ccc(N(C2C=CS(=O)(=O)C2)S(=O)(=O)c2ccccc2)cc1 (stereo not given)	3.8	3.7	2.3	-3.1	1.3	-8.8	2100
C=CCN(C(=O)c1ccccn1)C(C(=O)NCc1ccccc1)c1ccccc1F (stereo not given)	6.4	12.0	7.2	-39.2	-0.8	-12.9	3292
O=C(NNC(=O)c1ccc(Cl)cc1Cl)Nc1ccccc1	3.9	-6.3	5.6	-25.0	0.7	8.4	2508
Cn1nc([N+](=O)[O-])nc1Sc1ccc(Cl)cc1	-3.4	13.0	15.2	-25.9	19.9	-10.9	2681
Cc1ccc(Cn2ccc(=O)c(OCc3c(Cl)cccc3Cl)c2C)cc1	0.1	67.5*	34.8*	-14.4	3.7	0.3	3621

From PubChem BioAssay
